# Screens: PubChem, PCMD
# Biofilm kill mix – mixtures killing C. albicans biofilm | inhibition, % at 7.6 µM | AID 1242 | C. albicans biofilm persisters + clotrimazole, fluorescence viability; primary screen in compound mixtures of four per well | 120,000 compounds, 0.02% hits;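 active = inhibition above 30.3% in the primary screen of four-compound pools, then above 30% when the compound was retested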;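 also: compounds exposed to preformed 24 h biofilms for 48 h; the number belongs to the whole pool; some results filed as inactive read as strong as hits; inactives centre near 12; 0% = biofilm with clotrimazole alone and 100% = kill control; retested singly at about 60 µM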
#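 Incubation: 24 h biofilm formation, then 48 h compound exposure, 37 °C | Material: C. albicans biofilms | Buffer or medium: RPMI/MOPS medium, pH 7.0 | Measured by: 2-h Alamar Blue fluorescence, 535/590 nm excitation/emission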
# * hit, by the source's call.
SMILES,Biofilm kill mix
O=C(NC1CCCCC1)c1cc(C2CC2)on1,7
COc1ccc(P(=O)(COc2ccc([N+](=O)[O-])cc2)c2ccc(OC)cc2)cc1,15
COc1cccc2sc(Nc3nc(-c4ccncc4)cs3)nc12,-2
COc1cccc(CN2CCN(Cc3nc4c(s3)CCCC4)CC2CCO)c1 (stereo unspecified),0
COc1cc(C)c(C(=O)Oc2cc(C)c(C(=O)O)c(O)c2C)c(OC)c1C,22
CCC1CCCCN1C(=O)COC(=O)c1cc(Br)ccc1Cl (stereo unspecified),-8
O=C(O)c1ccc(COc2ccccc2C=C2C(=O)c3ccccc3C2=O)cc1,19
CCO[C@H]1OC(C(=O)O)=C[C@@H](C2CC2)[C@@H]1CCCO,16
O=C1c2ccsc2SCCN1Cc1ccccc1,6
CCN(CC)c1ccc(CNc2nc3ccccc3n2CC)cc1,14
NS(=O)(=O)c1ccc(NC(=O)COC(=O)c2cc(Cl)ccc2[N+](=O)[O-])cc1,4
O=C(/C=C/c1cccc(F)c1)Nc1ccc(S(=O)(=O)Nc2ncccn2)cc1,9
CCCCCCC(=O)N/N=C(\C)Cc1ccccc1,16
C=CCN(CC=C)c1ccc(N2C(=O)C3CCCCC3C2=O)cc1[N+](=O)[O-] (stereo unspecified),-2
CN(CCNC(=O)CCCOc1cc(=O)n(C)c2ccccc12)Cc1ccccc1,15
COc1cccc(CC2(CO)CCN(Cc3cnc(N4CCOCC4)s3)CC2)c1,13
Cc1onc(-c2c(Cl)cccc2Cl)c1NC(=O)NNc1ccccc1,12
Cc1oc(-c2ccoc2)nc1CN(Cc1ccccc1)CC1CC1,26
COc1cccc(Nc2nc3ccccc3c(=O)[nH]2)c1,5
CC1CC(C)(C)CC2(C1)NC(=O)N(CC(=O)NC1CCCc3ccccc31)C2=O (stereo unspecified),18
COc1cc(C2CC(=O)Oc3c(C(CCN4CCOCC4)c4ccc(N(C)C)cc4)c(OC)cc(OC)c32)cc(OC)c1OC (stereo unspecified),18
O=c1c2ccccc2c(-c2ccccc2)nn1-c1ccccc1,15
COC(=O)/C(=N/Nc1ccccc1Cl)Sc1nnc(C(O)c2ccccc2)n1-c1ccccc1 (stereo unspecified),15
O=C(O)CCCC(=O)Nc1ccc(Oc2cccc(C(F)(F)F)c2)nc1,23
CC1(C)OC(=O)N(CC(=O)Nc2ccccc2)C1(C)O (stereo unspecified),24
O=C(CC1C(=O)NCCN1Cc1c(F)cccc1Cl)NC1CCCCCC1 (stereo unspecified),28
COc1cc(-c2nc(C)c(C(C)=O)n2O)ccc1OCC(=O)Nc1ccc(Cl)cc1,16
CCC(=O)N1CCN(c2ccccc2NC(=S)NC(=O)c2cccc([N+](=O)[O-])c2)CC1,13
CC(C)NC(=O)COc1ccc2c(c1)C(=O)CC(C)(C)O2,10
CCOC(=O)C1(Cc2ccccc2Cl)CCN(C(=O)CN2CCOC2=O)CC1,3
Nc1nnc(SCCCC(=O)c2ccc(F)cc2)s1,13
Cc1nc(NC(=O)COc2ccc(Cl)cc2)sc1C(=O)N(C)C,16
Cc1cc(C)[n+](-c2ccc(C(C)C)cc2)c2[nH]c(=O)[nH]c(=O)c12,14
Cc1c(CCO)sc[n+]1CC(=O)OCCC12CC3CC(CC(C3)C1)C2,0
Cc1ccc2nc(-c3ccc(SCC(=O)Nc4nc(C)cs4)nc3)[nH]c2c1,14
CCOC(=O)Cc1cc(=O)n2[nH]c(-c3ccccc3)c(-c3ccccc3)c2n1,9
CN(c1ccccc1)c1ccc(/C=N/NC(=O)CC#N)cc1,7
Cc1ccc(-c2nc(-c3ccc(Cl)cc3)sc2CC(=O)O)c(C)c1,14
Cc1ccccc1/C(N)=N/OC(=O)c1ccc(F)cc1,3
C/C(=N\NC(=S)NCc1ccccc1)c1ccccc1F,0

# Already shown: entries from further up.
SMILES,Biofilm kill mix
CCO[C@H]1OC(C(=O)O)=C[C@@H](C2CC2)[C@@H]1CCCO,16
O=C1c2ccsc2SCCN1Cc1ccccc1,6

# Fetched by structure from the entries so far, six records:
SMILES,Biofilm kill mix
CCOC(=O)Cc1cc(=O)n2[nH]c(-c3ccccc3)c(-c3ccccc3)c2n1,9
Cc1ccc2nc(-c3ccc(SCC(=O)Nc4nc(C)cs4)nc3)[nH]c2c1,14
Cc1cc(C)[n+](-c2ccc(C(C)C)cc2)c2[nH]c(=O)[nH]c(=O)c12,14
O=c1c2ccccc2c(-c2ccccc2)nn1-c1ccccc1,15
Cc1nc(NC(=O)COc2ccc(Cl)cc2)sc1C(=O)N(C)C,16
COc1cc(-c2nc(C)c(C(C)=O)n2O)ccc1OCC(=O)Nc1ccc(Cl)cc1,16

# Further records:
SMILES,Biofilm kill mix
O=C(COc1ncnc2ccccc12)c1ccc(Cl)cc1,18
COc1ccc(CCNC(=O)C/C(C)=N/NC(=O)C2CCCCC2)cc1OC,6
O=[N+]([O-])c1cccc2ncccc12,12
O=C(Nc1ccccc1)c1ncoc1-c1ccc(Cl)cc1,20
OCCC1CN(Cc2cnc(-c3ccc(Cl)cc3)nc2)CCN1C1CCCC1 (stereo unspecified),29
COc1ccc2cc(C3C(C#N)=C(N)OC(C)=C3C(C)=O)c(Cl)nc2c1 (stereo unspecified),14
CCN(CC)S(=O)(=O)c1ccc(C(=O)Oc2coc(CSc3nc(C)cc(C)n3)cc2=O)cc1,11
Cc1ccn2cc(CCNS(=O)(=O)c3ccc4c(c3)CCCC4)nc2c1,17
CCOC(=O)N1CCN(CCC(=O)Nc2ccc(OC)cc2OC)CC1,12
Cc1ccc(-c2c(C(=O)NCc3ccccc3)oc(=O)c3ccccc23)cc1,-11
CC(=O)NNc1ncnc2c1cnn2-c1ccc(C)cc1,18
C=C(C)CN(CC)C(=O)CC1C(=O)NCCN1CC(C)(C)C (stereo unspecified),13
CCOc1ncccc1C(=O)N(C)CC(=O)Nc1ccc(C)cc1,9
CC(C(=O)Nc1ccc2c(c1)OCO2)c1ccc([N+](=O)[O-])cc1 (stereo unspecified),19
Cc1nc(S/C(=C/c2ccc(-c3cc(Cl)ccc3C)o2)C(=O)O)n[nH]1,-6
COc1ccc2c(c1)-c1nc(N)sc1CC2,14
Cc1cccc(NC(=O)Nc2ccc3c(c2)OCO3)n1,9
CC(C)CCn1nnnc1C(C(C)C)N1CCC(C(N)=O)CC1 (stereo unspecified),5
Fc1ccc(CSc2nnc3ccc(-c4ccncc4)nn23)cc1,4
CCCCn1c(=O)c(CCC(=O)OCC(=O)Nc2cc(Cl)ccc2OC)nc2ccccc21,11
CCOC(=O)N/N=C\c1ccc(C)s1,8
COC(=O)NCN1C(=O)C2C3C=CC(C3)C2C1=O (stereo unspecified),9
COc1cccc(NC(=S)N/N=C2/CCCCc3ccccc32)c1,12
CN1CCN(NC(=O)C23CC4CC(CC(C4)C2)C3)CC1,8
CN(C(=O)CSCC(=O)O)C1CCCCC1,11
COc1cc(/C=C/C(=O)NC(C)C)ccc1OCc1ccccc1,13
O=C(CCN1CCN(c2ccccc2)CC1)Nc1cccc(Br)c1,7
CCN1C(C(=O)c2ccccc2)=C(Nc2ccccc2C)c2ccccc2S1(=O)=O,19
CSc1ncccc1C(=O)Nc1nc2c(C)cccc2s1,12
Cc1cccc(C(=O)Nc2ccccc2SCC(=O)Nc2ccc(C)c(Cl)c2)c1,11
CCOc1ccc(NC(=S)c2ccncc2)cc1,10
O=C(NCC(=O)N(Cc1cccs1)C(C(=O)NC1CCCCC1)c1ccco1)c1ccco1 (stereo unspecified),8
CCc1ccc(NC(=O)COC(=O)c2ccc(Cl)c(S(=O)(=O)N3CCCCCC3)c2)cc1,13
O=C(CCSCc1ccc(Cl)cc1)NCCC1=CCCCC1,8
Cc1cc(NC(=O)/C=C/c2ccco2)ccc1NC(=O)c1ccccc1,21
CC(=O)Nc1ccc(NC(=O)C/C(C)=N/NC(=O)C(=O)Nc2ccc(C)c(Cl)c2)cc1,16
CC1=NN(C(=O)c2ccc(Br)cc2)C(O)(c2ccccc2)C1 (stereo unspecified),8
Cc1nc2ccccc2c(=O)n1NC(=O)C1CCC(C(C)(C)C)CC1 (stereo unspecified),20
O=C1C(Nc2ccccc2)=C/C(=N/S(=O)(=O)c2cccs2)c2ccccc21,17
O=C(COC(=O)c1ccc(Cl)c(S(=O)(=O)N2CCCC2)c1)NCc1cccs1,3
O=C(c1cc(F)ccc1F)C1CCCN(C(=O)CSc2ccccn2)C1 (stereo unspecified),18
CCC(C)(C)C1CCC(=NNC(=O)c2ccc(Br)o2)CC1 (stereo unspecified),7
Cc1ccc(NC(=O)CC2SC(=O)N(c3ccccc3)C2=O)cc1 (stereo unspecified),25
Cc1cc(C(=O)N/N=C/c2cc([N+](=O)[O-])cc(C)c2O)n[nH]1,14
COC(=O)[C@@H]1C(c2ccccc2)(c2ccccc2)[C@@]1(C)C(=O)OC,21
Cc1csc2nc3cc(C(N)=O)ccc3c(=O)n12,16
CCOC(=O)c1ccc(NC(=S)NN2CCN(C)CC2)cc1,9
S=C(Nc1ccccc1Oc1ccccc1)NC1CCCC1,6
Cc1cc(C)n(-c2nc3c(c(=O)[nH]c(=O)n3C)n2CC(O)COc2ccc(Cl)cc2Cl)n1 (stereo unspecified),4
O=C(NCc1cccnc1)c1cnc2ccccc2n1,23
COc1ccc2c(C)cc(SCn3nnc4ccccc4c3=O)nc2c1,9
CS(=O)(=O)c1ccccc1C(=O)NC1CCCc2ccccc21 (stereo unspecified),6
O=[N+]([O-])c1cc(Cl)ccc1N1CCCC1,17
CNc1oc(-c2cccs2)nc1S(=O)(=O)c1ccccc1,-10
CC(C)(C)C1CCc2c(C(=O)NNC(=O)CCC(=O)O)csc2C1 (stereo unspecified),8
COc1ccc(N2C(=O)CC(N3CCN(C(=O)c4ccco4)CC3)C2=O)cc1 (stereo unspecified),22
CC(C)CCC(CC(C)O)c1n[nH]c(=S)n1-c1ccccc1 (stereo unspecified),10
CC1=C(C)/C(=N/OC(=O)c2cccc([N+](=O)[O-])c2)C=CC1=O,16
O=C(Nc1ccc(OC(F)(F)F)cc1)C1=NCCN1,17
O=[N+]([O-])c1ccc(N2CCOCC2)cc1NCCCO,15

# A draw from above in order of formula weight, falling.
SMILES,Biofilm kill mix
CC(C)(C)C1CCc2c(C(=O)NNC(=O)CCC(=O)O)csc2C1 (stereo unspecified),8
CCOC(=O)c1ccc(NC(=S)NN2CCN(C)CC2)cc1,9
S=C(Nc1ccccc1Oc1ccccc1)NC1CCCC1,6

# The list continues.
SMILES,Biofilm kill mix
CNCC(O)CN1CCN(c2ccccc2OC)CC1 (stereo unspecified),3
C=C(C)c1cccc(C(C)(C)NC(=O)N(C)C2CCN(C)CC2)c1,19
C[C@]12C=CC(=O)C=C1CC[C@@H]1[C@@H]2[C@@H](O)C[C@@]2(C)[C@H]1CC[C@]2(O)C(=O)COC(=O)CCC(=O)O,12
O=C(O)CN1C2=NCCCN2c2ccccc21,18
O=C(COC(=O)[C@@H]1CC(O)CN1S(=O)(=O)c1ccc([N+](=O)[O-])cc1)NC12CC3CC(CC(C3)C1)C2 (stereo partly specified),11
Cc1cccc2nc(CSc3ncccc3C(=O)O)cn12,12
Cc1cccc(C)c1OCC(=O)Nc1ccc(NC(=O)c2ccco2)cc1,-1
Cc1nn(CCO)c(N)c1C1(O)C(=O)Nc2c(Cl)cc(Cl)cc21 (stereo unspecified),-10
O=C(Oc1ccc2ccc(=O)oc2c1)c1cccs1,12
CCCc1c(C(=O)Nc2cc(C)on2)cnn1-c1ccccc1,13
Cc1nc2ccccc2nc1OCC(=O)Nc1ccc(F)cc1,4
CN1CCN(c2nc(Nc3ccccc3)nc(N)c2[N+](=O)[O-])CC1,21
Cc1cccc(C)c1NC(=O)C(c1ccccc1)N1CCN(C(=O)c2ccco2)CC1 (stereo unspecified),11
Cc1ccc(Cn2nnc3c(=O)n(CC(=O)OCc4ccccc4)cnc32)cc1,6
COc1ccc(C(=O)/C=C/c2ccccc2)c(OC)c1,15
CCc1cccc(CC)c1-n1c(SCC(=O)N2CCc3ccccc3C2)nnc1-c1cccnc1,15
CC(C)NC(=O)CN1C(=O)C(=O)c2ccccc21,13
CC(NC(=O)c1cc(Br)ccc1Br)c1ccccc1 (stereo unspecified),13
O=C(C1=NN(c2ccccc2)C2C(=O)N(c3ccccc3Cl)C(=O)C12)c1ccccc1 (stereo unspecified),-2
CCC(C)[C@H](NC(=O)Nc1cccc(Br)c1)C(=O)OC (stereo partly specified),11
COc1ccc(/C=N/NC(=O)c2ccn[nH]2)cc1CN1CCOCC1,10
O=c1c(C/C=C/c2ccccc2)c(O)ccn1Cc1cccc(Cl)c1,16
CC(C)(Cc1ccc(O)cc1)NC(=O)CC(=O)N/N=C/c1ccc([N+](=O)[O-])cc1,22
O=C(c1ccc([N+](=O)[O-])s1)N1CCN(c2cccc(Cl)c2)CC1,17
Clc1ccc(-c2nc3ccccn3c2CN2CCSCC2)cc1,11
N#C/C(=C\c1ccc(N2CCOCC2)o1)C(=O)NCC1CCCO1 (stereo unspecified),4

# Individual results from the results shown.
# Clc1ccc(-c2nc3ccccn3c2CN2CCSCC2)cc1 in Biofilm kill mix: 11
# CC(C)(Cc1ccc(O)cc1)NC(=O)CC(=O)N/N=C/c1ccc([N+](=O)[O-])cc1 in Biofilm kill mix: 22
# O=c1c(C/C=C/c2ccccc2)c(O)ccn1Cc1cccc(Cl)c1 in Biofilm kill mix: 16

# The list is partial; rates above refer to the full screens.
